D2 agonist: Beta-Arrestin HTS for Positive Allosteric Modulators of the Human D2 Dopamine Receptor: Agonists. D(2) dopamine receptor (Homo sapiens), P14416. DiscoveRx PathHunter D2 beta-arrestin, luminescence, 90 min; 100% = 57 uM dopamine signal. activation, % (concentration not given with the values). hit rate 0.084% among 360,000. AID 624465, 2012; in the data active = activation above about 40%; inconclusive = about 15% to 40%; inactive = below about 15%; also: compound concentration not given in the record; the text of the record calls up to 30% inactive
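DiscoveRx PathHunter D2 beta-arrestin cells (2,100/well) attached overnight, then compound-stimulated 90 min at 37 C in HBSS/10 mM HEPES/0.1% Tween-20 buffer; beta-galactosidase complementation read by luminescence after 1 h at ambient temperature. Dopamine 57 uM final (EC100) as control.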
PINK1 modulator: A Quantitative High throughput Screen to Identify Chemical Modulators of PINK1 Expression; AID 624263, 2012; PINK1 immunofluorescence, high-content cytometry, 24 h; hit rate 0.2% among 410,000; Potency, µM (top dose mostly 76.6 µM), without a hit: at the highest dose activation (PINK1 increase), actives largely listed as activators; active = well fitted activation curve with a large enough effect; inconclusive = small, poorly fitted or top-dose-only effect; inactive = flat fitted curve, though single readings scatter; cell line not stated here;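 also: potency is read from the fitted curve at half-maximal effect; % of control where 0% means no effect; nearly all actives have a fitted effect of over 65% in size; a mitochondrial uncoupler was the plate control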
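PINK1 protein level read as immunofluorescence by microplate cytometer in a fixed, stained stable cell line after 24 h exposure to five compound concentrations, with CCCP as control.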
Sfp inh: qHTS Assay for Inhibitors of Bacillus subtilis Sfp phosphopantetheinyl transferase (PPTase) | Biochemical Sfp PPTase activity, qHTS | Potency, µM, for inactives: max response, negative = inhibition, hits mostly inhibitors | hit rate 3.5% among 310,000 | AID 1490, 2009; active = well fitted inhibition curve with a large enough effect; inconclusive = small, poorly fitted or top-dose-only effect, or another doubt; inactive = no such curve, though single readings can be large or run the other way;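 also: the enzyme is Sfp with the accession as filed and its product quenches rhodamine fluorescence; potency is read from the fitted curve at half-maximal effect; 0% = enzyme reaction without inhibitor and -100% = no enzyme wells; top concentration of the series not given in the record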
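Compounds were incubated with enzyme (final 15 nM) for 15 min at room temperature before substrate addition started the reaction. Fluorescence at 525 nm excitation, 598 nm emission was recorded immediately and after 30 minutes.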
Six1-Eya2 blk: qHTS Assay for Inhibitors of the Six1/Eya2 Interaction. AlphaScreen GST-Six1/His-Eya2 binding, biochemical; active compounds read low; control for the full effect not named in the record. activity change, % (concentration not given with the values). hit rate 0.56% among 360,000. AID 651725, 2012; in the data active = activity change below about -65%; inconclusive = about -30% to -65%; inactive = above about -30%; also: % is scaled to controls: 0 for no effect and ±100 for the full control effect
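Six1/Eya2 binding was read as AlphaScreen signal after compounds were pinned into GST-Six1 plus His-tagged Eya2 (5X stock 250/500 nM) in pH 8.0 Tris/NaCl/TCEP buffer, beads added, then incubated 1 h, 37 C, dark.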
D2 PAM: Beta-Arrestin HTS for Positive Allosteric Modulators of the Human D2 Dopamine Receptor: Potentiators | DiscoveRx D2 beta-arrestin cells, luminescence, 90 min; 100% = 57 uM dopamine signal | potentiation, % (no concentration beside the values) | hit rate 0.23% among 360,000; active = potentiation of 50% or more; inconclusive = 30% to 50%; inactive = 30% or less;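 also: compound concentration not given in the record; tested on top of an EC20 dose of dopamine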
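PathHunter beta-arrestin assay in DiscoveRx D2 cells. Compounds were added with an EC20 of dopamine (50 nM final) for 90 min at 37 deg C. Luminescence was read 1 h after detection reagent, with 57 uM dopamine as the EC100 control.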
CtBP-E1A blk: qHTS Assay for Inhibitors of the CtBP/E1A Interaction; AlphaScreen GST-E1A/His-CtBP binding, 1536-well; active compounds read low; control for the full effect not named in the record; activity change, % (concentration not given with the values); hit rate 0.49% among 340,000; AID 651724, 2012; in the data active means activity change below about -65%; inconclusive means about -30% to -65%; inactive means above about -30%; also: % is scaled to controls: 0 for no effect and ±100 for the full control effect
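Homogeneous bead-based format: GST-tagged E1A captured on glutathione donor beads, His-tagged CtBP on nickel acceptor beads; compounds precede bead addition by 2 h at 37 °C.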
TRPV1 PAM: HTS Assay for Compounds that Act as Potentiators of the Vanilloid Receptor 1; hit rate 0.02% among 320,000; Transient receptor potential cation channel subfamily V member 1 (Homo sapiens), Q8NER1; potentiation, % at 8.33 µM; TRPV1-expressing cells, Fluo-8 calcium influx, capsaicin EC20 potentiation; host cell line not named in the record; control for the full effect not named in the record; active means potentiation above 80%; inconclusive means 30% to 80%; inactive means below 30%; also: 0% is about no effect
Target sequence (Q8NER1 whole entry, looked up): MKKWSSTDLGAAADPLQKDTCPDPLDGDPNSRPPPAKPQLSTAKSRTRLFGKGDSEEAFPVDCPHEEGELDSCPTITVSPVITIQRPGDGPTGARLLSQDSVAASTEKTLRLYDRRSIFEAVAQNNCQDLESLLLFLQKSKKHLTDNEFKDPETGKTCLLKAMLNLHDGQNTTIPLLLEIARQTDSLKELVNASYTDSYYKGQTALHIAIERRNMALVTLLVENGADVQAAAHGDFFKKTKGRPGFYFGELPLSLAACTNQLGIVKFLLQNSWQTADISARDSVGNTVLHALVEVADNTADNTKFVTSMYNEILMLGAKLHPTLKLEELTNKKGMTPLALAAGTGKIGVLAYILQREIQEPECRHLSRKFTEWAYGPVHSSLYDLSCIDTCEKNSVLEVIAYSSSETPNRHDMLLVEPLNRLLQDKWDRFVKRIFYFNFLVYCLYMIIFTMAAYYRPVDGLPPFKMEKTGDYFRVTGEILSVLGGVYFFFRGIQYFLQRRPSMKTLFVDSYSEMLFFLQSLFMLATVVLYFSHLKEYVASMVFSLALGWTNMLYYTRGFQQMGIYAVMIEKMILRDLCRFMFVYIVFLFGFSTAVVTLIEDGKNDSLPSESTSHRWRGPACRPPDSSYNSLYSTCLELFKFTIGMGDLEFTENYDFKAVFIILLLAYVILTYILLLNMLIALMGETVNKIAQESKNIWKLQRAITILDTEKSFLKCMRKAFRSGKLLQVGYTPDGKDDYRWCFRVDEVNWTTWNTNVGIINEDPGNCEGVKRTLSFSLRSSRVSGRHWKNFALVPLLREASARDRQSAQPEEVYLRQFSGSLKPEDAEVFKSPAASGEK
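TRPV1-expressing cells were cultured overnight at 35.5C and loaded with Fluo-8 calcium dye for 40 to 90 min at room temperature. After a 10 s baseline, compound was added and calcium influx was read kinetically for 3 min (ex 480/em 520 nm).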
Numbers without * were called inactive; ? = inconclusive; . = no result given; & = joins results of further samples; [ ] = remark or other dose.

Under each structure: CtBP-E1A blk, Sfp inh, Six1-Eya2 blk, PINK1 modulator, D2 PAM, TRPV1 PAM, D2 agonist
[1] O=C(CN1C(=O)C2CCCCC2C1=O)NC1CCCc2ccccc21 (stereo not drawn)
    8.3, ., -3.5, 1.4%, -1.7, -16.9, -2.4
[2] CCCn1cnc2c(SCc3ccccc3F)nc(N)nc21
    -2.2, ., -9.1, 10.0%, -5.4, ., -2.4
[3] CCOc1[nH]n(-c2ccc(Cl)cc2)c(=O)c1C=Nc1ccc(OC)cc1
    1.2, -3.6%, 0.0, 0.9%, -5.1, -13.1, -1.9
[4] CCCN(CCC)S(=O)(=O)c1ccc(C(=O)Nc2ccc(S(=O)(=O)Nc3nnc(CC)s3)cc2)cc1
    0.0, 17.7%, 15.0, 1.6%, -31.0, -27.3, 0.0
[5] COc1ccc(C)cc1NC(=O)c1ccccc1N(C)S(=O)(=O)c1ccccc1
    -11.4, 7.1%, 4.9, 0.6%, 0.0, -7.0, -3.7
[6] Cc1ccnc2nc(C(=O)OCC(=O)Nc3ccccc3C(C)(C)C)nn12
    ., 9.9%, -3.6, 1.0%, -2.4, -0.6, -5.1
[7] Cc1cc(C)n(C(=O)c2ccccc2[N+](=O)[O-])n1
    4.6, 3.5%, 5.2, 0.2%, 0.1, 4.7, 2.4
[8] CCCCn1c(=O)[nH]c(=O)c2c1nc(COC(=O)c1c(C)noc1C)n2CCC
    -0.8, -5.0%, 5.9, -4.8%, 12.6, -16.4, 3.9
[9] Cc1ccc2c(c1)C(c1ccncc1)=NNC(c1ccccc1)=N2
    1.1, -13.4%, 2.9, -0.6%, 2.1, -25.0, 0.5
[10] CCC(C)(C)NC(=O)C(c1ccc(OC)cc1)N(Cc1cccs1)C(=O)CCC(=O)Nc1cc(C)on1 (stereo not drawn)
    -3.0, -9.0%, -2.3, -0.2%, -24.8, 15.9, -1.7
[11] CCC(=O)Nc1nonc1-c1nc2ccccc2n1N(C(=O)CC)C(=O)CC
    -26.7, 0.7%, ?, 0.4%, -30.5, -11.2, -3.7
[12] COc1cccc2oc3cc(C#CC4(O)CCCCC4)ccc3c(=O)c12
    -4.0, 0.0%, -6.0, 10.7%, 5.7, -11.6, 3.7
[13] Cn1c(SCC(=O)N/N=C/C=C/c2ccccc2[N+](=O)[O-])nc2ccccc21
    -4.8, 5.9%, -7.0, 8.4%, -7.7, 3.1, -3.0
[14] COc1cccc(NC(=O)Cc2nnc(SCC(=O)NC3=NCCS3)n2C)c1
    -1.3, 19.2%, -4.5, 3.3%, -5.6, 3.1, -3.3
[15] CC(C)CNC(=O)c1cccc(NC(=O)COc2ccc([N+](=O)[O-])cc2)c1
    3.2, 7.3%, 4.2, 2.2%, -3.5, 5.1, -1.7
[16] NNC(=S)NC1CCCCC1
    2.5, -23.0%, -0.1, -0.5%, -8.2, 6.2, 0.6
[17] Cc1cc(C)c(C#N)c(SCc2cn3ccccc3n2)n1
    -10.6, -5.0%, -3.5, 0.4%, -11.4, -10.3, 0.7
[18] O=C(c1ccc(F)cc1)N1CCN(Cc2ccccc2Br)CC1
    1.2, ?, 6.0, -1.5%, -25.8, -13.5, -1.5
[19] O=C(NCCN1CCCC1)C1(S(=O)(=O)c2ccc(Cl)cc2)CC1
    -1.0, 14.2%, 2.6, 0.7%[38.3 µM], -16.0, -0.9, -2.1
[20] CCOC(=O)c1cc2c(=O)n3ccccc3nc2n(CC2CCCO2)c1=NC(=O)/C=C/c1ccccc1 (stereo not drawn)
    -7.7, -4.4%, -8.7, 3.9%, -1.7, 6.5, 2.5
[21] CCC(C(=O)O)n1cnc2scc(-c3ccc(C)c(C)c3)c2c1=O (stereo not drawn)
    13.2, 26.2%, 4.0, 1.0%, 1.8, -1.2, -0.8
[22] COc1ccccc1C(C(=O)NC1CCCCC1)N(C(=O)c1csnn1)C1CC1 (stereo not drawn)
    -7.4, 3.7%, 6.2, 0.3%, -19.0, -0.3, -4.0
[23] O=c1[nH]c2ccccc2nc1-c1nnnn1C1CCCC1
    3.3, ., -3.7, -0.2%, ., ., .
[24] O=C(O)c1cccc(NS(=O)(=O)c2ccc3c(c2)OCCCO3)c1
    -13.3, 6.5%, 2.4, 0.5%, -2.8, 1.9, -1.8
[25] Cc1nn(-c2ccccc2)c(Cl)c1/C=N/Nc1nc2ccccc2n1C
    ., -2.4%, -19.8, 3.7%, 1.3, 4.3, 6.4
[26] COC(=O)c1ccc2c(c1)NC(=O)C(N1CCCC1)S2 (stereo not drawn)
    4.0, 18.7%, 0.1, 10.9%[38.3 µM], -2.8, 3.2, 1.5
[27] O=C(CN1C(=O)NC2(CCCCC2)C1=O)NNC(=O)C1CC1
    -27.1, ., -9.4, 1.1%, -13.2, -12.5, 0.4
[28] CCCNC(=O)c1ccc(N2CCC3(CC2)CC(c2cccc(Br)c2)=NO3)c(NC(=O)c2c(Cl)cccc2Cl)c1
    -0.6, ., 9.2, -0.8%, -3.5, -19.5, -0.5
[29] CCOC(=O)N1CC=C2C(C#N)=C(N)C(C#N)(C#N)[C@H](c3cccs3)C2C1 (stereo partly drawn)
    -1.4, 20.0%, -6.9, 11.1%, -4.7, 8.8, -4.4
[30] COc1cccc(-c2ccc3c(c2)O[C@H](CN(C)C(=O)c2ccccc2F)[C@H](C)CN([C@H](C)CO)S3(=O)=O)c1
    -5.9, ., 10.1, -2.7%, 4.6, ., 4.5

Full records from above:
`CCOC(=O)N1CC=C2C(C#N)=C(N)C(C#N)(C#N)[C@H](c3cccs3)C2C1` (stereo partly drawn) reads CtBP-E1A blk = -1.4; Sfp inh = 20.0%; Six1-Eya2 blk = -6.9; PINK1 modulator = 11.1%; D2 PAM = -4.7; TRPV1 PAM = 8.8; D2 agonist = -4.4
`COc1ccccc1C(C(=O)NC1CCCCC1)N(C(=O)c1csnn1)C1CC1` (stereo not drawn) reads CtBP-E1A blk = -7.4; Sfp inh = 3.7%; Six1-Eya2 blk = 6.2; PINK1 modulator = 0.3%; D2 PAM = -19.0; TRPV1 PAM = -0.3; D2 agonist = -4.0

Following part:
Under each structure: CtBP-E1A blk, Sfp inh, Six1-Eya2 blk, PINK1 modulator, D2 PAM, TRPV1 PAM, D2 agonist
[31] Cc1ccc(NC(=O)COC(=O)CCc2ccc(S(=O)(=O)N3CCOCC3)cc2)c(C)c1
    ., 15.6%, 2.3, 0.6%, 29.5, 1.3, 4.0
[32] Cc1ccc(C(=O)N2CCCC2)cc1S(=O)(=O)N1CCCCC1
    20.4, 9.9%, 7.9, 1.7%, -13.5, -5.0, -3.9
[33] CC1CCN(c2ccc3nnc(CCC(=O)N4CCCCC4)n3n2)CC1
    6.6, 6.6%, 0.7, 1.7%, -5.3, 21.5, -3.7
[34] CCn1c(SCC(=O)Nc2ccc(C)cc2)nc2nc3c(cc2c1=O)CCCC3
    -1.8, -0.8%, -5.2, 4.9%, -20.1, 18.0, 0.5
[35] O=C(NCc1ccc(Cl)cc1)c1ccc(S(=O)(=O)N2CCCCC2)cc1
    ., ., 10.6, 4.9%, -9.9, -20.1, -3.6
[36] CCOc1ccc(S(=O)(=O)NCCCN2CCOCC2)cc1
    2.7, -1.5%, -0.4, 0.4%[38.3 µM], -0.2, -1.2, 0.7
[37] Fc1ccc2nc(-c3ccccc3)ccc2c1
    30.2, ., 30.4, 2.1%, -7.2, ., -2.9
[38] COc1ccccc1-c1noc(CCC(=O)N2CCN(c3cc(C)ccc3C)CC2)n1
    -2.5, ., -1.3, 0.3%, ., ., -1.8
[39] COc1ccc(N2CCN(C(=O)Cc3ccc(S(=O)(=O)N4CCOCC4)s3)CC2)cc1
    4.8, -3.2%, 3.0, -0.6%, 2.8, 1.2, -1.1
[40] O=C(NCC1CCCO1)C1CCCN(S(=O)(=O)c2cccc(C(F)(F)F)c2)C1 (stereo not drawn)
    8.6, 18.8%, -2.5, 1.5%, -3.4, -20.9, -1.6
[41] CCOC(=O)c1ccc(NC(=O)CN2C(=O)C3C4C=CC(C4)C3C2=O)cc1 (stereo not drawn)
    0.5, 2.2%, -1.7, 2.0%, 2.9, -1.1, -3.1
[42] CCn1c(CNC(=O)c2ccccc2F)nnc1SCC(=O)NC1CCCCC1C (stereo not drawn)
    4.6, 6.9%, 10.1, -0.6%, 3.0, 1.5, 1.0
[43] COc1ccc(C(=O)COC(=O)CSCc2c(C)noc2C)cc1OC
    -0.5, 5.4%, -1.3, 6.4%[38.3 µM], 0.1, -20.6, -1.4
[44] O=C(c1ccc(N2CCCC2=O)cc1)N1CCN(c2ccccc2)CC1
    -1.3, 15.3%, 5.8, -0.7%, 2.4, -2.1, 0.3
[45] CCCCN=C(NNc1ccc(Br)cc1)C(=O)OCC
    -12.3, -3.2%, -19.1, ?, ?, 11.2, ?
[46] CCN(CCCNC(=O)Cn1ncc2c([nH]c3ccc(C)cc32)c1=O)Cc1ccccc1
    6.4, 5.3%, 0.9, -1.4%&2.0%, -9.5, -3.2, 1.4
[47] C=CCN(CC=C)c1nc2ccccc2nc1C(C#N)C(=O)OC(C)C (stereo not drawn)
    21.9, -12.3%, -0.6, 17.0%, -20.2, -6.9, -1.8
[48] OCCC1CN(Cc2ccccc2OC2CCCC2)CCN1Cc1ccsc1 (stereo not drawn)
    -12.3, 10.7%, -4.4, 1.8%, -9.0, -9.3, -2.8
[49] Nc1ccc2c(c1)Cc1c(F)cccc1-2
    3.5, ., -10.0, 0.5%, -11.3, ., -0.5
[50] Cc1cccc(OCc2n[nH]c(=S)o2)c1
    -0.8, 11.2%, -0.2, -4.9%, 2.7, 5.7, 3.3
[51] Cc1ccc(OCC(=O)Nc2ccc(C(N)=O)cc2)cc1
    -13.2, 6.8%, 5.3, 2.1%, -6.2, 8.3, -2.4

Limited to Sfp inh (three entries from above):
nr	structure	Sfp inh
44	O=C(c1ccc(N2CCCC2=O)cc1)N1CCN(c2ccccc2)CC1	15.3%
45	CCCCN=C(NNc1ccc(Br)cc1)C(=O)OCC	-3.2%
46	CCN(CCCNC(=O)Cn1ncc2c([nH]c3ccc(C)cc32)c1=O)Cc1ccccc1	5.3%

Screening data: PubChem BioAssay, National Center for Advancing Translational Sciences (NCATS)
